NPYLR7 agonist: activates Aedes aegypti NPYLR7 receptor; HEK293T NPYLR7/Galpha15, GCaMP6s calcium fluorescence; activation, % at 10 µM; 270,000 tested, 0.15% active; in the data active means activation above about 40%;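 further: 0% = vehicle and 100% = reference agonist at the receptor; some compounds past the cut are filed as inactive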
NPYLR7 agonist max-min: also measured in NPYLR7 agonist; calls as there; activation, %; measured here: Max-Min RFU normalised activation; some inactives read as strong as hits;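 span of the calcium signal over five minutes; 0% = vehicle and 100% = native peptide agonist; compound fluorescence can raise it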
An asterisk follows results filed as active. A portion of the library; count on the stated rates, not on these rows.

SMILES | NPYLR7 agonist | NPYLR7 agonist max-min
O=C(CSc1nnc(-c2ccccc2Cl)n1-c1ccccc1Cl)OCc1ccccc1 | 17.8 | 19.9
COc1ccc(C(=O)Nc2ccc(Nc3ccc(-n4nc(C)c(C)c4C)nn3)cc2)cc1OC | -7.2 | -11.8
O=C(CC(c1ccccc1)(c1ccccc1)c1ccccc1)N1CCC(c2ccccc2)CC1 | -2.3 | -7.6
CN(C(=O)CCn1[nH]c(=O)c2ccccc2c1=O)c1nc2ccccc2s1 | 0.5 | 5.2
CCn1c(CC2CCN(Cc3ccc(-c4ccn[nH]4)o3)CC2)nn(C)c1=O | 13.7 | 10.1
COCCn1cc(C(=O)NCCc2cccc(OC)c2)c2nn(-c3ccccc3)c(=O)c-2c1 | 5.0 | 2.9
CCCc1c(C(=O)O)cnn1-c1cccc(Cl)c1 | 14.8 | 12.9
Oc1c(Cl)cc(Cl)c2ccc(/C=C/c3cccnc3)nc12 | -4.4 | -9.1
COc1ccc(NC(=O)CNC(=O)CNC2CCCCC2)cc1 | -6.1 | -12.8
Cn1nc(-c2ccccn2)c2c1NC(=O)CC2c1nc2c(s1)CCCC2 (stereo not given) | -6.4 | -11.9
CN(CC1COCCO1)C(=O)c1nccc2ccccc12 (stereo not given) | 1.2 | 2.3
CCCSc1ncccc1C(=O)NCc1cccs1 | -5.7 | -9.2
Cc1ccc(C)c(C(C)NC(=O)COc2ccccc2C#N)c1 (stereo not given) | -1.0 | -1.6
Cn1cc(-c2ccc(-c3nc(Cc4ccc(F)cc4)no3)cn2)cn1 | 0.2 | -1.8
CSCCC(C(=O)O)N1C(=O)/C(=C/c2cccc(O)c2)SC1=S (stereo not given) | -5.0 | -9.0
COc1ccc(-n2c(-c3ccc(Cl)cc3)n[nH]c2=S)cc1 | -4.3 | -10.0
O=C1CC(c2ccccc2)CC2=Nc3ccccc3NC(c3ccccc3[N+](=O)[O-])C12 (stereo not given) | -1.5 | -1.1
Cc1ccc(N2CC(C(=O)NCC3CCN(S(=O)(=O)C4CC4)CC3)CC2=O)cc1C (stereo not given) | -8.6 | -8.9
CC(Oc1ccc(F)c(F)c1)C(=O)NC1CS(=O)(=O)c2ccccc21 (stereo not given) | -3.3 | -4.5
CCc1c(C)nc(SCc2nc(-c3ccc(C)cc3)oc2C)[nH]c1=O | 1.1 | -1.0
CCN(CC)C(=O)Cn1nc(-c2ccc(F)cc2)c2sc(C)nc2c1=O | -2.3 | -3.9
CCn1c(C2CCN(C(=O)c3ccc4cccnc4n3)CC2)nn(C)c1=O | -0.2 | -0.7
CCOC(=O)C1(Cc2ccc(OC)cc2)CCN(C(=O)c2ccc3oc(C)cc3c2)CC1 | 5.7 | 4.0
COc1ccc(CNC(=O)c2cccnc2N2CCN(C(=O)c3cccc(N(C)C)c3)CC2)cc1 | 5.0 | 4.8

Compounds from the list above with a Cl atom:
SMILES | NPYLR7 agonist | NPYLR7 agonist max-min
O=C(CSc1nnc(-c2ccccc2Cl)n1-c1ccccc1Cl)OCc1ccccc1 | 17.8 | 19.9
CCCc1c(C(=O)O)cnn1-c1cccc(Cl)c1 | 14.8 | 12.9
Oc1c(Cl)cc(Cl)c2ccc(/C=C/c3cccnc3)nc12 | -4.4 | -9.1
COc1ccc(-n2c(-c3ccc(Cl)cc3)n[nH]c2=S)cc1 | -4.3 | -10.0

Compounds from the list above with a furan ring, fused or not, in the order listed:
SMILES | NPYLR7 agonist | NPYLR7 agonist max-min
CCn1c(CC2CCN(Cc3ccc(-c4ccn[nH]4)o3)CC2)nn(C)c1=O | 13.7 | 10.1
CCOC(=O)C1(Cc2ccc(OC)cc2)CCN(C(=O)c2ccc3oc(C)cc3c2)CC1 | 5.7 | 4.0

(list continues)
SMILES | NPYLR7 agonist | NPYLR7 agonist max-min
COCc1ccc(C(=O)N2CC(=O)N(Cc3ccccn3)CC(OCc3cccc(OC)c3)C2)o1 (stereo not given) | 18.3 | 9.2
CC(C)CC(NC(=O)c1ccc(S(C)(=O)=O)cc1)c1cccc(C(F)(F)F)c1 (stereo not given) | 3.2 | 0.4
O=C(NCCc1ccccn1)c1ccc(C(F)(F)F)nc1 | 8.8 | 5.5
c1ccc(-c2ncn(C3CCNC3)c2-c2ccc(OCc3ccccn3)cc2)cc1 (stereo not given) | -2.6 | -4.1
Cc1noc(C)c1C12CC3CC(CC(CC(=O)NN)(C3)C1)C2 | 0.0 | -1.6
COCCN(Cc1nccn1Cc1ccccc1C)S(=O)(=O)c1ccc(C)cc1 | 15.1 | 13.5
COc1ccccc1-c1nc2c(C)cccn2c1NC(C)(C)CC(C)(C)C | -5.8 | -4.4
Cn1cnnc1SCc1ccc(OCC(F)(F)F)cc1 | 6.8 | 6.2
CN(Cc1ncc(-c2cccc(Br)c2)o1)C1CCCCC1S(C)(=O)=O (stereo not given) | 1.8 | -9.3
c1coc(CN(Cc2ccsc2)Cc2cccc3cnccc23)c1 | -2.8 | -9.3
O=C1NC(c2ccccc2)C(=O)N(CC(=O)N2CCCCC2c2ccccn2)c2ccccc21 (stereo not given) | 0.2 | 13.2
COc1ccccc1-n1c(SCc2ccc(C(=O)NCc3ccco3)cc2)nnc1-c1ccccc1Cl | 0.7 | 4.5
CCCn1c(SCCn2c(C)csc2=O)nc2ccccc2c1=O | -19.7 | -18.2
COC(=O)C(c1ccccc1)C1C=CC(NC(=O)c2ccc(F)c(C(F)(F)F)c2)C1 (stereo not given) | 4.9 | 4.7
Cc1ccc(C(=O)n2nc3ccccc3c2N)o1 | 3.1 | -0.1
COc1ccc(/C=C2\SC(=S)N(CCC(=O)NNC(=O)c3ccccc3O)C2=O)c(OC)c1 | -6.0 | -9.9
CC(C)NC(=O)Cn1nnc(-c2ccccc2)n1 | -7.5 | 1.3
COc1cccc(C(=O)N(Cc2nccn2Cc2ccccc2F)CC(C)C)c1 | 5.1 | 15.7
O=S(=O)(C1CC1)N1CCCCC1c1ccc(F)cc1 (stereo not given) | 2.5 | -0.5
COc1cc(S(=O)(=O)NCc2cccnc2)ccc1F | 11.5 | 4.8
CCOc1cc(C(=O)O)c(NC(=O)c2ccc(OC)cc2OC)cc1OC | 10.0 | 12.1
CCOc1c(CC)cnc2c1c(=O)n(CC(=O)Nc1cccc(C)c1)c(=O)n2C | -3.3 | -4.9
CCN(CC(=O)NN1C(=O)NC2(CCCCC2)C1=O)Cc1ccccc1 | 0.0 | -2.0
CC(C)(CNc1snc(Cl)c1C#N)N1CCOCC1 | 4.2 | 0.1
CCOC(=O)c1cccc(S(=O)(=O)N2CCCCC2C(=O)NC)c1 (stereo not given) | -7.7 | -8.0
CC(C)CN1CCC(NC(=O)c2ccc(Cl)cc2Cl)CC1 | 5.1 | 1.1
CCCc1cc(C(=O)OCC)nn1C1CCN(C(=O)c2c(Cl)cc(Cl)cc2Cl)CC1 | 7.3 | 5.4
O=C(CSc1nc2ccccc2c(=O)n1C1CC1)c1ccccc1F | 13.4 | 3.5
CC(C)S(=O)(=O)c1ccc(N2CCN(c3cccc(Cl)c3)CC2)nn1 | 2.5 | 5.1
Cc1nc2n(n1)C(=O)C(C(c1cccc(Cl)c1)N1CCN(Cc3ccccc3)CC1)S2 (stereo not given) | 2.7 | 1.9
CCn1c(C)cc(O)c(C(c2ccc(SC)cc2)N2CCCCC2)c1=O (stereo not given) | 9.4 | 3.2
CCOC(=O)C1=C(C)NC(C)=C(C(=O)OCC)C1C(=O)OCC(=O)N1CCCC1 | 1.1 | -1.9
Cc1ccccc1N1CCCn2c1nc1c2c(=O)n(CC(=O)OCc2ccccc2)c(=O)n1C | 1.1 | 2.5
CCCCn1c(SCc2nnc(C)o2)nc2sc(C)c(C)c2c1=O | 0.7 | 10.0
Cc1ccn(C(CC(=O)c2ccc(Br)cc2)C(=O)O)n1 (stereo not given) | -5.8 | 4.1
O=C1CSC2(C(=O)Nc3ccccc32)N1c1ccc(Cl)cc1 (stereo not given) | -2.0 | -3.4
COc1cccc(CN(CCc2c[nH]c3ccccc23)Cc2nc(C(=O)NCCc3ccccn3)co2)c1 | 7.4 | 13.1
O=S(=O)(Cc1ccc(F)cc1)Nc1nc2c(s1)CCCC2 | 7.8 | 8.3
CCOC(=O)c1ccc(NC(=O)c2ccnn2C)cc1 | -5.0 | -7.8
C=CCn1c(N2CCN(Cc3ccccc3)CC2)nc2c1c(=O)[nH]c(=O)n2C | 0.2 | -2.8
C=CCn1c(=O)c2c(nc3n2CC(C)=NN3Cc2ccc(C)cc2)n(C)c1=O | 7.7 | 1.7
Cc1cc2c3c(c1)C1(N=C(N)NC(Nc4ccccc4)=N1)C(=O)N3C(C)(C)CC2C (stereo not given) | -7.6 | -15.1
Cc1ccc(S(=O)(=O)N2CCN(c3ncccc3C#N)CC2)cc1C | -6.2 | 2.7
CCOCCn1cc(C2CCN(S(=O)(=O)c3ccc(S(C)(=O)=O)cc3)CC2)c2ccccc21 | 23.0 | 15.2
Cc1ccccc1C(C)NC(=O)Cc1csc(NC(=O)c2ccco2)n1 (stereo not given) | 13.9 | 9.4
O=C(c1cc(-c2ccccc2F)nc2cc(-c3ccc(Cl)cc3)nn12)N1CCc2ccccc2C1 | 15.2 | 4.6
CCc1cnc(-c2cc(C)ccc2OC)nc1 | -0.6 | -1.0
CCN1CCN(C(c2cc(OC)c(OC)c(OC)c2)C2Sc3ncnn3C2=O)CC1 (stereo not given) | 6.8 | 4.2

Complete entries as entered above:
C=CCn1c(N2CCN(Cc3ccccc3)CC2)nc2c1c(=O)[nH]c(=O)n2C is entered as NPYLR7 agonist: 0.2; NPYLR7 agonist max-min: -2.8
CCN1CCN(C(c2cc(OC)c(OC)c(OC)c2)C2Sc3ncnn3C2=O)CC1 (stereo not given) is entered as NPYLR7 agonist: 6.8; NPYLR7 agonist max-min: 4.2
CCOC(=O)c1ccc(NC(=O)c2ccnn2C)cc1 is entered as NPYLR7 agonist: -5.0; NPYLR7 agonist max-min: -7.8

Next part.
SMILES | NPYLR7 agonist | NPYLR7 agonist max-min
Cn1ccnc1-c1nccn1CCn1ccnc1 | 6.2 | 3.7
COc1ccc(OC)c(NC(=O)C2(C)CCN2Cc2ccc(-c3ccccn3)cc2)c1 (stereo not given) | 7.5 | 1.8
CC(C)Sc1nc2ccccc2n1CC(=O)O | 0.4 | -7.8
CC(C)(O)C#Cc1ccc(CN2CCCN(C(=O)C3CCC3)CC2)s1 | -5.2 | -5.3
Cc1cc(=O)[nH]c(-n2nc(C)c(CCC(=O)NC3CC3)c2C)n1 | 5.3 | 0.8
CCN1CCN(C(c2cccc(F)c2)c2c(O)cc(C)n(Cc3ccccn3)c2=O)CC1 (stereo not given) | 14.9 | 12.0
Cc1nn(-c2ccccc2)c2[nH]cc(C(=O)Nc3ccc(Oc4ccccc4)cc3)c(=O)c12 | -1.3 | 27.0
COc1cccc(C2CCN(Cc3nc(-c4cccc(Cl)c4)no3)C2)c1OC (stereo not given) | 16.4 | 7.8
COc1cncc(-c2ccc(NC(C)=O)cc2)c1 | 6.9 | 2.2
O=C(c1ccccc1OC1CCN(Cc2ccsc2)CC1)N1CCCCC1 | 17.7 | 6.3
O=C(c1ccc(Cl)cc1)N(CCN1CCOCC1)c1nc2c(F)cc(F)cc2s1 | 8.5 | 1.2
CCN(CC)S(=O)(=O)c1cccc(C(=O)Nc2sc3c(c2C#N)CCC3)c1 | 2.5 | -4.3
CCC(C(=O)Nc1cccc(C(=O)NC(C)(C)C)c1C)n1cccn1 (stereo not given) | 5.4 | 4.3
Cc1cc(C)n(C(=O)c2ccc([N+](=O)[O-])c(C)c2)n1 | -1.5 | -3.0
Cc1cc(C)n2nc(S(=O)(=O)NC(C)(C)C)nc2n1 | 0.2 | -2.8
COc1ccc(S(=O)(=O)N(CC(=O)NCCCN(C)C)c2ccc(C)cc2)cc1OC | 3.7 | 11.4
CC(Cc1ccccn1)N(C)C(=O)C(C)(C)n1cccc1 (stereo not given) | 2.0 | 0.7
Cc1cc2c(C(C)C)c(O)c(O)c(C=O)c2c(O)c1-c1c(C)cc2c(C(C)C)c(O)c(O)c(C=O)c2c1O | -3.0 | -8.2
O=C(CCCSc1nnc(-c2cccs2)n1C1CC1)c1cccs1 | 2.3 | 8.5
COC(=O)c1sc(N)nc1C1CC1 | -0.3 | -8.6
COCCNC(=O)Cn1nc(C(C)C)c2cnn(-c3ccc(C)c(C)c3)c2c1=O | 5.7 | 2.9
CCCCN1C(=O)c2ccc(C(=O)Nn3c(C)nc4sccc4c3=O)cc2C1=O | 13.2 | 5.7
O=C(Cn1cccn1)N1CCCC(N2CCN(c3ccccc3F)CC2)C1 (stereo not given) | 3.9 | 1.4
COc1cccc(Cc2c(C)nc(C)nc2N2CCN(C(=O)c3ccccc3F)CC2)c1 | -0.6 | -1.4
O=c1c2nnn(-c3ccc(F)cc3)c2ncn1Cc1cccc(C(F)(F)F)c1 | 7.6 | 10.7
CC(=O)SC1CC2=CC(=O)CC[C@]2(C)C2CC[C@@]3(C)C(CC[C@@]34CCC(=O)O4)C12 (stereo not given in full) | 2.6 | -19.5
CCN1C(=O)C(=Cc2csc(N(C(C)=O)c3ccc(OC)cc3)n2)SC1=S | 0.3 | 1.9
CC(=O)N1CCN(c2nc(SCc3cccc(C(=O)N4CCCC4)c3)nc(C)c2C)CC1 | 3.5 | 10.4
O=C(Cc1cccs1)NN=Cc1c(Cl)cccc1Cl | -0.2 | -1.4
CN(C)CCN(Cc1nccn1Cc1ccc(Cl)cc1Cl)C(=O)C1CCCC1 | 15.9 | 13.2
CN1CCN(C(CC(=O)Nc2ccc(O)cc2)C(=O)O)CC1 (stereo not given) | 3.0 | 1.0
O=S(=O)(Cc1coc(-c2cccc(Cl)c2)n1)c1ncn[nH]1 | 5.0 | 2.2
O=C(NCC1CC1)c1nnc2n1CCN(Cc1ccccc1Cl)C2 | 10.9 | 5.0
CCSCc1ccc(C(=O)Nc2n[nH]c(CC)c2Br)cc1 | 7.0 | 4.6
Cc1ccc(-c2n[nH]c(=S)n2-c2ccc(C)cc2)cc1 | -1.8 | -8.0
COc1ccc(C(=O)NC2CCC(NC(=O)[C@H]3CCCN3C(=O)COc3ccccc3)CC2)cc1 (stereo not given in full) | 3.1 | 18.6

Screening data deposited in PubChem by Fisher Drug Discovery Resource Center.
